Source: PubChem (Emory University Molecular Libraries Screening Center)
Measles inh = inhibitors of measles virus growth in infected cells | infected Vero cells, GFP fluorescence, 64 h; active compounds read low | z-score (test concentration not listed) | hit rate 0.1% among 33,000 | AID 745;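 active = z-score under -3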;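 also: score is relative to mean and SD of the compound wells of a plate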
* hit, by the source's call. Some of the compounds tested; the hit share may differ from the screen's.

structure	Measles inh
Fc1ccc(C2C=C(c3ccc4c(c3)OCO4)Nc3ncnn32)cc1 (stereo not drawn)	-0.36
COc1ccc(C2NN(C(=O)c3cccc(Br)c3)C3C(=O)N(c4ccccc4OC)C(=O)C23)cc1 (stereo not drawn)	-0.39
COc1ccc(C(=O)OCCN2CCCCC2)cc1	1.2
CC1CCc2sc(NC(=O)c3ccc(N4C(=O)C5C6C=CC(C6)C5C4=O)cc3)c(C#N)c2C1 (stereo not drawn)	-0.17
CC1(C)NC(=O)N(CC(O)COc2ccc(I)cc2)C1=O (stereo not drawn)	0.03
Cc1ccc(S(=O)(=O)N=C(CN2CCOCC2)N2CCN(S(=O)(=O)c3ccc(C)cc3)C2C)cc1 (stereo not drawn)	2.1
O=C(c1ccc2nc3sc4c(c3c(=O)n2c1)CCCC4)N1CCN(c2ccccn2)CC1	0.79
O=P(Cc1ccccc1)(c1ccccc1)N(Cc1cccs1)CC1CCCO1 (stereo not drawn)	0.21
N#Cc1cc2nc3ccc4ccccc4c3nc2cc1C#N	1.1
Cc1ccc(C(=O)Nc2ccc(-c3nc4cc(C(C)C)ccc4o3)cc2)cc1[N+](=O)[O-]	2.7
CC(C)N(CC#CCC1(O)c2ccccc2-c2ccccc21)CCO	0.27
O=C(Nc1nc2ccccc2s1)C1CC(=O)N(c2ccccc2Cl)C1 (stereo not drawn)	0.37
CCC(C)(C(=O)NC1CCCCC1)N(C(=O)Cc1cccs1)c1ccc(C)cc1 (stereo not drawn)	0.5
COc1ccc(Nc2nc(-c3cc4cc(Cl)ccc4oc3=O)cs2)cc1OC	-0.37
Cc1ccc2nc(N3CCC(C(=O)NCCc4ccccc4)CC3)[nH]c2c1	-0.4
C=CCOc1ccc2c(=O)c(Oc3cc(C)cc(C)c3)coc2c1	-0.46
Cn1c(=O)oc2cc(S(=O)(=O)N3CCC(C(N)=O)CC3)ccc21	-0.79
O=C(Nc1ccccc1Oc1ccccc1)c1ccc(S(=O)(=O)N2CCCCC2)cc1	-0.98
COc1ccc(-c2nc3ccccc3o2)cc1NC(=O)Cc1ccc(Cl)cc1	-1.9
COC(=O)c1c(N)n(-c2ccc(Br)cc2)c2nc3ccccc3nc12	-0.56

4 successive compounds already listed, quoted:
structure	Measles inh
C=CCOc1ccc2c(=O)c(Oc3cc(C)cc(C)c3)coc2c1	-0.46
Cn1c(=O)oc2cc(S(=O)(=O)N3CCC(C(N)=O)CC3)ccc21	-0.79
O=C(Nc1ccccc1Oc1ccccc1)c1ccc(S(=O)(=O)N2CCCCC2)cc1	-0.98
COc1ccc(-c2nc3ccccc3o2)cc1NC(=O)Cc1ccc(Cl)cc1	-1.9

(more compounds)
structure	Measles inh
O=C(NCc1cccs1)c1ccc2c(c1)N(Cc1ccccc1)C(=O)c1ccccc1S2	0.25
CCN1C(=O)c2cccc3c(S(=O)(=O)N4CCCc5ccccc54)ccc1c23	0.35
O=C1NC(c2ccccn2)Nc2sc3c(c21)CCC3 (stereo not drawn)	-0.74
Cc1cc(C(F)(F)F)c2c(N)c(C#N)sc2n1	0.62
O=C(O)c1cc(Sc2ccccc2C(F)(F)F)nc2ccccc12	0.68
O=C(O)CNC(=O)Cn1cnc2sc3c(c2c1=O)CCCC3	0.17
COc1ccc(-c2csc(NC(=O)c3cccnc3)n2)cc1Br	0.04
COc1cccc(CNC(=O)c2cnn3c(C)c(Cc4ccccc4Br)c(C)nc23)c1	-1.2
Cc1ccc(N=Cc2cc(C)c(C)c(Br)c2O)c(O)c1	-0.85
Cc1cc(-c2cc(=O)[nH][nH]2)c(C)s1	-1.6
CC1=CC(C)(C)Nc2ccc(OC(=O)c3cccnc3)cc21	1.9
CCOc1ccc(S(=O)(=O)Nc2c(CC)cccc2CC)c2cccnc12	-1
COc1cc2c(cc1OC)C(C(=O)Nc1ccc(Br)cc1C)C(c1ccccc1F)N(C)C2=O (stereo not drawn)	-0.46
CC(C)(C#CC(O)(c1ccccc1)c1ccccc1)N1CCCC1	-2.4
COCCCNC(=O)c1cc(=O)n(Cc2ccc(Cl)cc2)c2ccccc12	-0.37
CC1CCC(N2C(=O)C3C(C(=O)Nc4ccc(C(C)C)cc4)C4C=CC3(O4)C2C(=O)NC2CCCCC2C)CC1 (stereo not drawn)	-0.33
COc1ccc(NC(=O)Cn2cnc3sc(C)cc3c2=O)c(OC)c1	-0.37
Cn1c2ccccc2n2ncnc12	-0.42
COc1cccc2cc(C(N)=O)c(=Nc3ccccc3)oc12	0.27
CCN(CC)S(=O)(=O)c1ccc(C(=O)Nc2nc3c(s2)CC(C)CC3)cc1 (stereo not drawn)	0.01

Arranged by formula weight (falling): three of the compounds above
structure	Measles inh
CC1CCC(N2C(=O)C3C(C(=O)Nc4ccc(C(C)C)cc4)C4C=CC3(O4)C2C(=O)NC2CCCCC2C)CC1 (stereo not drawn)	-0.33
COc1ccc(NC(=O)Cn2cnc3sc(C)cc3c2=O)c(OC)c1	-0.37
CC(C)(C#CC(O)(c1ccccc1)c1ccccc1)N1CCCC1	-2.4

New compounds follow
structure	Measles inh
COc1cc(C2CC(=O)C3=C(C2)Nc2ccccc2NC3c2ccc(C(C)C)cc2)cc(OC)c1OC (stereo not drawn)	-0.29
CCc1ccccc1NC(=O)c1cc(S(=O)(=O)NCCc2ccccc2)ccc1F	-0.03
Nc1ccc(C(=O)Nc2ccc(-c3nc4cc(N)ccc4o3)cc2)cc1	-1.9
O=C(COc1ccccc1[N+](=O)[O-])Nc1ccccc1[N+](=O)[O-]	0.78
O=C(CN1CCN(Cc2ccc(F)cc2)C1=O)NCc1ccc(F)cc1	-2.2
O=C(CSc1ncn[nH]1)N1CCc2ccccc21	1.9
COc1cccc(C2C3=C(CC(C)(C)CC3=O)Nc3ccc4ccccc4c32)c1OC (stereo not drawn)	0.04
CCC(=O)OCCNc1cc(Sc2ccc(Cl)cc2)c2nonc2c1[N+](=O)[O-]	-0.78
Cc1ccc(OCC(=O)Nc2ccc(C)cc2Br)cc1	-0.37
CCc1ccccc1Nc1ncnc2c1cnn2-c1cccc(C)c1	-0.36
O=C(c1cnc2sccn2c1=O)N1CCN(C(c2ccccc2)c2ccccc2)CC1	0.34
CCOc1ccc(C(=O)Oc2c(Sc3ccccc3[N+](=O)[O-])c(C)nn2C(C)(C)C)cc1	-0.03
COc1cccc(C(=O)Nc2cc(-c3nc4ccc(C)cc4o3)ccc2C)c1	-0.12
COC(=O)c1cc(NC(=O)C2(S(=O)(=O)c3ccc(C)cc3)CC2)cc(C(=O)OC)c1	1.1
Cc1ccc(C(=O)Nc2cc(C)c3c(=O)oc4ccccc4c3n2)cc1[N+](=O)[O-]	0.55
CCOC(=O)c1cnc2c(C)cccc2c1Nc1ccc(C(C)=O)cc1	-0.56
CC(C)c1ccc(CNc2cc(N3CCCC3)ccc2[N+](=O)[O-])cc1	3
COc1ccc(CCn2c(SCc3ccccc3C#N)nc3ccsc3c2=O)cc1OC	0.42
C=CCn1c(SCC(=O)Nc2ccc(C)cc2C)nnc1-c1ccc2ccccc2n1	0.32
CC(Nc1cc(N2CCN(C(=O)c3cccs3)CC2)ccc1[N+](=O)[O-])C12CC3CC(CC(C3)C1)C2 (stereo not drawn)	0.35
CCCCNC(=O)c1c[nH]c2ccc(S(=O)(=O)Nc3cccc(C(F)(F)F)c3)cc2c1=O	-0.08
O=C(COc1ccc(Cl)cc1)Nc1ncc(Cc2ccc(F)cc2)s1	0.2
Cc1ccc(NC(=O)c2cc(S(=O)(=O)N3CCCc4ccccc43)ccc2F)cc1Cl	0.91
Cc1ccc(-c2cc(C(=O)Nc3sc4c(c3C(N)=O)CCC(C(C)(C)C)C4)c3ccccc3n2)o1 (stereo not drawn)	-0.37
CC1=C(C(=O)OC2CCCC2)C(c2ccccc2Cl)NC(=O)N1C (stereo not drawn)	-0.78
CC(=O)c1ccc2ccccc2c1OC(=O)c1cccnc1	-0.22
CCN(CC)CCCNC(=O)c1c(-c2ccccc2)noc1C	0.83
COC(=O)c1cc(C(=O)Nc2cc(C(=O)OC)ccc2C(=O)OC)cc([N+](=O)[O-])c1	-1.2
Cc1ccc(CN2C(=O)CN(CC(=O)NC3CCCCC3)C(=O)C2c2ccccc2F)cc1 (stereo not drawn)	1
Cc1nc(N2CCOCC2)c2oc3ccccc3c2n1	-1.7
CC(C)C(NC(=O)c1ccc(C23CC4CC(CC(C4)C2)C3)cc1)C(=O)N1CCC(N2CCCCC2)CC1 (stereo not drawn)	-0.77
Cc1cccc(C(=O)NCCCn2ccnc2)c1	0.18
Oc1ccc(NCc2cccs2)cc1	-1.6
CN(Cc1ccco1)C(=O)c1c[nH]c2ccc(S(=O)(=O)Nc3ccc4c(c3)OCCO4)cc2c1=O	1.8
CC1CCC(N2CC(=O)N(Cc3ccccc3)C(c3ccc(F)cc3)C2=O)CC1 (stereo not drawn)	0.37
Cc1ccc(Cn2ccc(NC(=O)c3cc(-c4ccc(F)cc4)on3)n2)cc1	0.1
COc1ccc(Nc2nc(C)cc(C)c2C#N)cc1	2.1
COc1cccc(-n2nc(C(=O)NCc3ccccn3)c3ccccc3c2=O)c1	1.6
CCC(C)(C(=O)NC1CCCCC1)N(C)C(=O)Cc1c[nH]c2ccccc12 (stereo not drawn)	-0.32
Cc1cccc(C(=O)N2N=C(CC(C)C)CC2(O)C(F)(F)F)c1 (stereo not drawn)	-0.12
Cc1nnc(NC(=O)c2ccc(S(=O)(=O)N(C)C)cc2)o1	0.96
O=C1C2CCCCC2C(=O)N1CC(=O)N1c2ccccc2Sc2ccc(C(F)(F)F)cc21 (stereo not drawn)	2
Cc1ccc([N+](=O)[O-])cc1NC(=O)CN1C(=O)c2ccccc2C1=O	-0.36
CC1(C)CC(NCC(=O)N2c3ccccc3Sc3ccc(Cl)cc32)CC(C)(C)N1	-1.4
Cc1oc2ccc(OC(=O)c3ccc(Br)cc3)cc2c1C(=O)OC(C)C	-0.62
CN(C)c1ncnc2c1[nH]c1ccccc12	0.21
Cc1cccc(NC(=O)CSc2nnc(NC(=O)CN3CCCCC3)s2)c1	-0.1
CCOc1ccc(OCC)c(S(=O)(=O)N2CCN(C34CC5CC(CC(C5)C3)C4)CC2)c1	0.58
Cc1ccc2nc(-c3ccc(NC(=O)c4cccnc4)cc3)sc2c1	-0.3
CC1CCCCN1CCCNC(=O)c1ccc2c(=O)n(CCc3ccccc3)c(=O)[nH]c2c1 (stereo not drawn)	-1.8

The listing continues:
structure	Measles inh
COc1ccc(-n2c(CCC(=O)O)ccc2-c2ccc(Br)cc2)c(OC)c1	0.63
COc1ccc(C2CC(C(F)(F)F)n3nc(C(=O)Nc4ccc(Cl)c(C(F)(F)F)c4)cc3N2)cc1 (stereo not drawn)	0.48
CC(C)CCNC(=O)CN1C(=O)COc2ccccc21	1.6
Cc1ccc(NC(=O)CSc2cn(Cc3cccc(F)c3)c3ccccc23)cc1	-0.84
CCOC(=O)C1=NNC2C(=O)N(c3ccc(Cl)cc3)C(=O)C12 (stereo not drawn)	-1.2
O=C(Nc1sc2c(c1C(=O)O)CCC2)c1ccc(I)cc1	-0.62
CCOC(=O)c1cc(CC)sc1NC(=O)C1CC1	-0.58
Cc1ccccc1OCC(=O)Nc1ccc(Cl)cc1	-0.59
Cc1ccc(-c2nnc(-c3cccc(F)c3)o2)cc1	-0.18
O=C(CSc1nnc(-c2ccccc2F)o1)NC1CCCCC1	0.76
Cc1ccc(CNC(=O)c2cnn3c(C(F)(F)F)cc(-c4ccccc4)nc23)cc1	1.2
O=C1OC(N2CCC(Cc3ccccc3)CC2)c2ccccc21 (stereo not drawn)	-0.85
COc1ccc(NC(=O)Cc2ccccc2[N+](=O)[O-])c(OC)c1	-0.15
CC(=O)c1c(C)[nH]c(C(=O)NC2CCCc3ccccc32)c1C (stereo not drawn)	0.31
COc1ccc(C2C(=O)N(CCc3ccccc3)CC(=O)N2C2CCCC2)cc1 (stereo not drawn)	1.6
CCN(C(=O)c1ccc(Cl)cc1)c1ccc(C(O)(C(=O)OC)C(F)(F)F)cc1 (stereo not drawn)	-0.05
CCOC(=O)c1cnc2c(C)c(Cl)ccc2c1Nc1ccccc1CC	-0.9
COc1ccc(C2=CC(c3ccccc3OC(F)F)n3ncnc3N2)cc1 (stereo not drawn)	-0.23
Cc1noc(C)c1C(=O)Nc1nnc(-c2ccccc2)s1	1.9
C=CCSc1nnc(C)c(=O)[nH]1	0.39

Brought forward from above: four entries; new compounds follow.
structure	Measles inh
CCOC(=O)c1cnc2c(C)c(Cl)ccc2c1Nc1ccccc1CC	-0.9
COc1ccc(C2=CC(c3ccccc3OC(F)F)n3ncnc3N2)cc1 (stereo not drawn)	-0.23
Cc1noc(C)c1C(=O)Nc1nnc(-c2ccccc2)s1	1.9
C=CCSc1nnc(C)c(=O)[nH]1	0.39
[O-]c1n[n+](-c2ccc(F)cc2)no1	1.4
O=C(NCc1cccnc1)C1CCCN(S(=O)(=O)c2cccc3nsnc23)C1 (stereo not drawn)	0.47
CCOC(=O)c1c(NC(=O)c2cccc(Cl)c2)sc(C(=O)Nc2cccc(C(F)(F)F)c2)c1C	-1
CCOc1ccc(NC(=O)c2ccc3c(=O)n(-c4ccc(OC)cc4)c(=S)[nH]c3c2)cc1	1.4
CN1CCN(c2nc(-c3ccccc3)cc(C(F)(F)F)n2)CC1	-1.4
O=C1CC(Nc2ccc(F)cc2)C(=O)N1c1ccc(Br)cc1 (stereo not drawn)	1.8
Cc1cccc(C=Cc2ccc3cccc(O)c3n2)c1O	1.1
COc1ccc2cc(-c3nnc(Nc4ccccc4OC)s3)c(=O)oc2c1	-0.12
Cc1ccccc1N1C(=O)c2cccc3c(C(=O)O)ccc(c23)C1=O	1
O=C(NCc1ccco1)c1ccc2c(=O)n(C3CCCCC3)c(=S)[nH]c2c1	-0.09
Cc1ccc(S(=O)(=O)N2C(=O)c3ccccc3C2=O)cc1	2.1
COc1ccc(C(CC(=O)c2ccccc2)S(=O)(=O)c2ccccc2)cc1 (stereo not drawn)	0.54
